Compound activity deposited in PubChem by several laboratories.
Vif TR-FRET – HIV-1 Vif–A3G interaction blockers – biochemical, TR-FRET, GST-Vif 1-94, biotin-A3G peptide, dose response retest, primary screen (AID 1117319); TR-FRET GST-Vif / biotin-A3G peptide binding; higher % means a stronger effect; test concentration not given here; strong numbers were not always called active; 260,000 compounds, 0.57% hits; one-dose inhibition, %; IC50 in µM for titrated hits;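 active means above the screen mean plus three standard deviations and confirmed in dose response; inconclusive means results disagree or hit not tested in dose response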;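 further: Vif residues 1-94 fused to GST binding biotinylated APOBEC3G peptide 110-148; 0% = full assay without inhibitor and 100% = GST in place of GST-Vif; retest series ran down from 100 µM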
RanGTP-Imp inh – inhibitors of RanGTP-importin-beta interaction, primary screen, biochemical, FRET, CFP-Ran, YFP-importin-beta, homogeneous; cell-free CFP-Ran/YFP-importin-beta FRET ratio; inhibition, % (concentration not given with the values); 300,000 compounds, 1.1% hits; AID 2216;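 active means most replicates above 15%; inconclusive means exactly half above 15%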;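 further: 0% = DMSO wells and 100% = Ran loaded with GDP instead of GTP; wells of about 40 µL received 100 nL stock; the first replicate is given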
FGF22 binding – FGF22 (human) thermal shift binding | recombinant FGF22 thermal shift, SYPRO orange fluorescence; percent of sucrose octasulfate shift, DMSO zero | calls only at 9.99 µM | AID 651658 | 340,000 compounds, 1.5% hits;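 active means melting point raised past a set limit in the mean and every replicate; inconclusive means no clear call; three in four hits are not shown here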
HNF4A DNA FP – change in binding of human HNF4 alpha to DNA; 360,000 compounds, 0.3% hits; activity change, % at 10 µM; HNF4a-FITC DNA binding, fluorescence polarization, 1 h; in the data active means activity change above about 30%, passing the limit was not always enough;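 further: controls were the assay level and a saturating level of protein; the project sought stronger binding though the title names inhibitors; some compounds called inactive have numbers as strong as hits; positive values seem to mean higher polarization but the record does not say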
Target sequence (P41235 whole entry, looked up): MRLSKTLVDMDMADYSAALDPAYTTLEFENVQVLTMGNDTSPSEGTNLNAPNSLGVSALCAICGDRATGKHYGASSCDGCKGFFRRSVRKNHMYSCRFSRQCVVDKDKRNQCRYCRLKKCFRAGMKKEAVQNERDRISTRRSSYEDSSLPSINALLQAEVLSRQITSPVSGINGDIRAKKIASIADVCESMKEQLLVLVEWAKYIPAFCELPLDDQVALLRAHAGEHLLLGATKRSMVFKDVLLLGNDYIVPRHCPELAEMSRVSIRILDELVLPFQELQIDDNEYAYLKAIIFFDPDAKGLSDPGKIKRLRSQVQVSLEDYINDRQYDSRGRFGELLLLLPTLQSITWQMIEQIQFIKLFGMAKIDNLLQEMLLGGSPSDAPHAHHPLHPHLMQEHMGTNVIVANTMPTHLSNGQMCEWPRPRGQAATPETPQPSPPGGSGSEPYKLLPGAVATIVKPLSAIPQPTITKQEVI
UCH37 DUB inh – inhibitors of human deubiquitinating enzyme UCH37 | Q9Y5K5 | purified proteasome/UCH37, Ub-AMC cleavage fluorescence | 330,000 compounds, 0.33% hits | inhibition, % (concentration not given with the values);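 active means mean of two replicates above 20%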;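 further: 0% = compound-free wells with enzyme and 100% = wells lacking proteasome; stock transfer was 100 nL into about 20 µL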
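Material: human UCH37 enzyme supplied as purified proteasome complex. Measure: % inhibition of Ub-AMC cleavage fluorescence. Medium: pH 7.4 Tris-HCl (50 mM) with ovalbumin, ATP-MgCl2, DTT. Times: 30 min preincubation with enzyme, 25 min cleavage at room temperature. Detection: AMC fluorescence intensity at 355/460 nm.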
E coli growth – inhibitors of Escherichia coli growth. OD600 absorbance (test concentration not listed). 330,000 compounds, 0.21% hits. AID 1053175. OD600, 23 h; hits give low values;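 active means OD600 absorbance below the run mean of sample wells minus 3.6 SD, in any replicate, cut at about 0.56 in these data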;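 further: stock transfer was 300 nL into about 60 µL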
MLL AF4-AF9 inh – MLL-AF4/AF9 protein interaction inhibition | AlphaScreen, biotin-AF4 peptide binding to FLAG-AF9 | inhibition, % at 10 µM | 350,000 compounds, 0.47% hits | AID 651704;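 active means every replicate reaching a set inhibition limit, whatever the replicate mean, cut at about 25% in these data; inconclusive means mean inhibition reaches that limit but some replicates miss it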;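 further: 0% = plate neutral control median and 100% = total signal loss; the record names both 10 and 1 µM as test concentration; the first replicate is given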
Target sequence (P42568 whole entry, looked up): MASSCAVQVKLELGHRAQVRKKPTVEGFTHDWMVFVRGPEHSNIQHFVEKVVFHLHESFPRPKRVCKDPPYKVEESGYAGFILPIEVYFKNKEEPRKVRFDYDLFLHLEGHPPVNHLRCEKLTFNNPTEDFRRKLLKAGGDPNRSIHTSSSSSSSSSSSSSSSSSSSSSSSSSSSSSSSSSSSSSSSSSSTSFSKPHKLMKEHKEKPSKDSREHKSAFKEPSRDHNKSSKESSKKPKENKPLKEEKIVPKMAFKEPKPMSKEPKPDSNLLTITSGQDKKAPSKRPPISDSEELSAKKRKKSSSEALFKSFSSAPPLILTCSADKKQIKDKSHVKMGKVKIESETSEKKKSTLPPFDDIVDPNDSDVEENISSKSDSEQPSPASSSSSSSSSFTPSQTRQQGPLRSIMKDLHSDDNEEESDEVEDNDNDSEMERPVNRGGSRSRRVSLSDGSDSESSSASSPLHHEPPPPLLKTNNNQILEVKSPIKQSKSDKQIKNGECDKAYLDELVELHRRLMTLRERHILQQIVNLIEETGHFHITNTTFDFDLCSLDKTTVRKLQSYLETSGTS
* marks the source's active call; other numbers are inactive results; i = inactive; u = inconclusive; x = no result given.

SMILES	Vif TR-FRET	RanGTP-Imp inh	FGF22 binding	HNF4A DNA FP	UCH37 DUB inh	E coli growth	MLL AF4-AF9 inh
Cn1c(=O)n(C)c2cc(NC(=O)COc3ccc(F)cc3F)ccc21	x	4.9	i	2.1	3.6	0.701	-2.7
CSCCC(NC(=O)c1ccc(Cl)cc1)C(=O)OCC(=O)Nc1cc(Cl)ccc1C#N (stereo not given)	13.4%	6.4	x	0.6	-1.6	0.731	x
CCc1nc2ccc(C(=O)N3CCN(C(C)=O)CC3)cn2c1N(CC)C(C)=O	x	x	i	-0.6	x	x	8.4
CN(C)S(=O)(=O)c1ccc(C(=O)OCC(=O)NCc2ccco2)cc1	x	0.1	i	-1.9	-2.6	0.653	-17.7
COc1ccc(NC(=O)CN(C)C(=O)Cc2ccc(-c3ccccc3)cc2)cc1	x	x	i	4.6	-4.0	0.71	-2.5
CN(C)c1ccc(CC(=O)N2CCCC(c3cc(C(=O)Nc4ccc(F)c(Cl)c4)no3)C2)cc1 (stereo not given)	x	x	i	2.4	x	x	3.7
COC(=O)c1ccc(C(=O)OC)c(NC(=S)N2CCCC(CO)C2)c1 (stereo not given)	0.2%	1.5	i	3.6	-3.6	0.708	-2.0
CCCn1c(O)c(N=NC(=O)CNC(=O)/C=C/c2ccc(OC)cc2)c2ccccc21	3.0%	1.8	i	3.9	6.7	0.651	2.7
CCOc1cc(N2CCOCC2)c(OCC)cc1NC(=O)CN1C(=O)NC(CC)(c2ccc(F)cc2)C1=O (stereo not given)	x	x	i	1.4	2.3	0.668	1.9
Cc1ccc(S(=O)(=O)Nc2ccc(C(=O)Nc3ccncc3)cc2)cc1	8.6%	u	i	-0.1	-0.6	0.678	-1.3
OCC1OC(n2cnc3ccccc32)CC1O (stereo not given)	15.4%	3.4	i	2.2	4.0	0.681	-0.9
CCCN(CCC)CCSc1nc(O)c(C(C)C)c(=O)[nH]1	-0.8%	u	x	1.4	-0.4	0.692	x
CC[C@@H]1CC=C[C@H]2[C@H]1C(=O)N(Cc1ccccc1)[C@H]2c1ccc(C(F)(F)F)cc1	0.9%	0.7	i	2.9	0.6	x	0.9
CCOc1cccc(C(=O)Nc2cnn(Cc3ccccc3)c2)c1	3.4%	0.6	x	-0.5	2.4	0.753	x
Cc1nnc(NC(=O)c2ccccc2-c2ccccc2C(=O)O)s1	x	-0.7	i	2.8	3.8	0.688	4.1
COC(=O)c1ccc(CNC(=O)c2ccc(OCC(=O)N3CCOCC3)c(OC)c2)cc1	-9.0%	-1.3	i	1.3	1.1	0.716	4.9
Cc1csc(NC(=O)c2nc(-c3ccccc3)n(-c3ccccc3)n2)n1	1.0%	1.5	x	-4.7	3.4	0.673	x
Cc1c(C(=O)N(C)CCC#N)oc2ccc(S(=O)(=O)N3CC(C)CC(C)C3)cc12 (stereo not given)	-3.7%	5.0	i	3.1	-0.7	0.71	3.9
Cc1ccc(NS(=O)(=O)c2ccc(-c3coc(C)n3)cc2)c(Cl)c1	x	x	i	1.0	x	x	-2.5
COc1cccc(-c2ccc(SCC(=O)NC3CCCCC3)nn2)c1	x	u	i	-1.4	4.3	0.7	1.4
Cc1cccc(-c2nc(CS(=O)CC(=O)N3CCc4ccccc4C3)c(C)o2)c1 (stereo not given)	2.7%	1.3	x	-4.2	5.6	0.768	x
CC(C)CCNC(=O)c1cc(S(=O)(=O)N2CCC3(CC2)OCCO3)ccc1F	-10.0%	x	i	4.3	x	x	-3.6
O=C(Cn1cnc2c(nnn2Cc2ccccc2F)c1=O)NCC1CCCO1 (stereo not given)	x	7.9	x	2.8	5.3	0.658	x
O=C(c1ccc2c3c(cccc13)CC2)N1CCOCC1	5.0%	7.5	x	-2.2	5.0	0.793	x

Sorted by molecular weight (lowest first): three of the compounds above.
SMILES	Vif TR-FRET	RanGTP-Imp inh	FGF22 binding	HNF4A DNA FP	UCH37 DUB inh	E coli growth	MLL AF4-AF9 inh
Cc1csc(NC(=O)c2nc(-c3ccccc3)n(-c3ccccc3)n2)n1	1.0%	1.5	x	-4.7	3.4	0.673	x
Cc1ccc(NS(=O)(=O)c2ccc(-c3coc(C)n3)cc2)c(Cl)c1	x	x	i	1.0	x	x	-2.5
Cc1cccc(-c2nc(CS(=O)CC(=O)N3CCc4ccccc4C3)c(C)o2)c1 (stereo not given)	2.7%	1.3	x	-4.2	5.6	0.768	x

Next records follow:
SMILES	Vif TR-FRET	RanGTP-Imp inh	FGF22 binding	HNF4A DNA FP	UCH37 DUB inh	E coli growth	MLL AF4-AF9 inh
COCCCNC(=O)C1CCN(C(=O)c2oc3cc4sc(N(C)C)nc4cc3c2C)CC1	x	7.1	i	0.7	-70.4	0.688	2.0
CC(=O)OCC(=O)Nc1ccc([N+](=O)[O-])cc1Cl	-5.2%	-1.5	i	1.3	5.5	0.685	-1.0
Cc1ccc(/C=C2/Sc3ccc(C(=O)NCc4ccccn4)cc3NC2=O)cc1	x	0.7	i	72.0*	-17.9	0.711	-1.4
CCOC(=O)C(NC(=O)Nc1cccc(C)n1)(OCC(F)(F)F)C(F)(F)F (stereo not given)	0.2%	2.9	x	-3.7	0.3	0.689	x
CCCC(C(=O)NC1CCCC1)N(C(=O)Cn1nnc(-c2ccc(C)o2)n1)c1ccccc1OC (stereo not given)	u	0.1	i	2.4	0.2	0.643	-26.5
CCN1CCN(c2cc(=O)n(C3CCCCC3)c(=O)[nH]2)CC1	1.5%	u	i	1.0	-1.1	0.635	-16.7
NC(=O)CSc1nnc(CNc2cccc(Cl)c2)n1CCc1ccccc1	-3.6%	1.5	x	0.3	0.9	0.669	x
CCCc1nnc(NS(=O)(=O)c2ccc(OC)cc2)s1	x	2.2	i	-1.2	x	x	-3.8
CCN1CCN(CCC(=O)Nc2ccccc2OC)CC1	0.1%	1.0	i	-2.4	-0.2	0.705	-48.6
Cc1ccc(Cn2nc(C)c(C(=O)N3CCN(S(=O)(=O)/C=C/c4ccccc4)CC3)c2C)cc1	-7.2%	x	i	0.2	4.8	0.652	3.5
CN(C)C1=NC[C@H](Cc2ccccc2)N1CCc1cccc(F)c1	x	x	i	-1.5	1.2	x	-4.9
Cc1noc(C)c1C(=O)N1CCN(S(=O)(=O)c2cccc(Cl)c2Cl)CC1	3.1%	-1.6	i	3.2	0.5	0.662	1.6
C(=N\Nc1nc(N2CCCCC2)nc(N2CCCCC2)n1)/c1c[nH]c2ccccc12	-4.4%	u	i	-0.1	x	x	12.5
Cc1ccc(C)c(NC(=O)C2(C)CCCN2C(=O)C(C)C)c1 (stereo not given)	x	x	i	0.9	x	x	0.6
Cc1ccccc1-c1csc(C(O)c2ccc(F)c(F)c2)n1 (stereo not given)	x	x	i	2.8	x	x	-3.7
CCc1ccccc1NC(=O)c1nnn(CC(=O)Nc2cccc(C)c2)c1N	-4.8%	3.2	x	0.5	0.7	0.726	x
C=CCOc1c(CNc2cccc(C(=O)O)c2)cccc1OC	-0.8%	1.0	x	0.8	-28.4	0.726	x
Cc1no[n+]([O-])c1COc1ccc(/C=N/n2nnnc2N)cc1	31.8%	-3.7	x	-2.8	x	x	x
CC1=C(C)CC(C(=O)NCC(=O)c2ccccc2)C(C(=O)O)C1 (stereo not given)	10.5%	5.3	x	4.1	7.9	0.656	x
CCCc1cc(=O)oc2cc3oc(C)c(C)c3cc12	1.5%	1.3	x	2.9	-8.8	0.685	x
CC1(C)CC(=O)C2=C(C1)OC(N)=C(C#N)C2c1ccc(OC(=O)N2CCOCC2)cc1 (stereo not given)	1.7%	1.4	x	10.0	2.2	0.743	x
CCOC(=O)c1nnn(-c2nonc2-n2cccc2)c1CCl	22.1%	-0.4	x	4.1	-2.1	0.745	x
Clc1ncnc2scc(-c3ccccc3)c12	74.1%	0.4	x	-0.1	0.7	0.653	x
CCCC(C)NC(=O)c1ccc(OCc2ccc(Cl)cc2)c(OC)c1 (stereo not given)	x	3.2	i	-2.9	2.8	0.706	0.0
CC12CCC(C(=O)N3CCOCC3)([C@H](Br)C1=O)C2(C)C (stereo not given in full)	x	-1.4	i	-0.4	2.0	0.672	2.0
O=C(NNC(=O)C12CC3CC(CC(C3)C1)C2)[C@@H]1C[C@H]1c1ccccc1	1.6%	-0.1	x	2.1	3.6	0.71	-0.8
COc1ccc(NC(=O)c2ccc3c(c2)OCCO3)cc1OC	x	-8.3	i	4.2	1.6	0.684	0.8
O=C(CN(C(=O)CCC(=O)Nc1nccs1)c1ccc(F)cc1)NCc1ccccc1	4.3%	0.9	i	-0.1	1.4	0.7	1.4
Cc1nc2c(-c3ccc(F)cc3)c(C)nn2c(C)c1CCC(=O)N1CCN(c2ccccc2)CC1	-6.6%	-0.1	i	-0.2	3.3	0.686	2.4
Cc1nnc(NC(=O)CSc2n[nH]c(-c3ccccc3C)n2)s1	x	u	i	0.3	1.7	0.669	1.1
CN(C)c1ccc(/C=N/NC(=O)c2ccc3nc[nH]c3c2)cc1	9.4%	-1.5	i	2.8	x	x	2.8
CCOc1ccc2ccccc2c1/C=N\NC(=O)OC	x	-1.8	i	5.6	x	x	-13.7
COC(=O)c1ccc(NC(=O)CSc2nncn2-c2cccnc2)cc1	x	0.7	i	-0.6	2.1	0.61	-0.9
CCOC(=O)c1ccc(NC(=O)C2CCCN(S(=O)(=O)c3ccc(F)cc3)C2)cc1 (stereo not given)	1.4%	-1.7	x	1.8	-0.5	0.696	x
NS(=O)(=O)OCc1ccc(C(F)(F)F)cc1	x	0.2	i	-0.5	3.3	0.675	1.4
Cc1cc2nnc(SCC(=O)Nc3cc(S(=O)(=O)N4CCOCC4)ccc3Cl)n2c2ccccc12	-6.0%	5.0	x	0.9	4.3	0.718	x
C[C@@H](C[C@@H](O)[C@H](O)C(C)(C)O)[C@@H]1CC[C@]2(C)C3=CC[C@H]4C(C)(C)C(=O)CC[C@]4(C)[C@H]3CC[C@@]12C	26.4%	-0.7	i	1.7	x	x	1.5
CCOC(=O)c1sc2nc(CC(=O)OC)nc(N3CCN(c4ccc(OC)cc4)CC3)c2c1C	-3.9%	4.6	x	-3.5	1.4	0.741	x
CSc1sc(C(=O)N(C)C)cc1S(=O)(=O)C(C)C	-2.9%	-0.8	i	2.1	6.3	0.681	-2.4
O=C(CN1CCN(S(=O)(=O)c2cc(Cl)ccc2Cl)CC1)c1ccc(O)c(O)c1	x	3.5	i	-3.0	3.3	0.7	-4.8
COc1ccc(NCc2nc3ccccc3n2CCOc2ccc(C)cc2)cc1	8.4%	8.2	i	-1.0	3.8	0.69	18.2
Cc1ccc(S(=O)(=O)NCC2CCC(C(=O)O)CC2)cc1 (stereo not given)	-0.9%	-5.7	i	-4.5	4.9	0.718	2.0
Cc1cc2c(cc1S(=O)(=O)N(C)C1CCCCC1)OCC(=O)N2	x	u	i	2.8	6.7	0.766	10.4
CCCCn1c(N)c(Sc2ccc(Cl)cc2)c(=O)[nH]c1=O	-2.6%	5.0	i	-2.5	2.4	0.656	-1.8
Cn1ncc(Cl)c1C(=O)N1CCC(Cc2ccccc2)CC1	-4.1%	u	i	-1.5	0.7	0.716	3.1
CCOc1ccc(N(CC(=O)Nc2ccc(C)c(C)c2)S(C)(=O)=O)cc1	x	5.1	i	1.4	6.6	0.656	-6.1
Cc1cc(C)cc(NC(=O)CCCCCN2C(=O)[C@@H]3Cc4ccccc4CN3C2=O)c1	0.1%	-2.2	i	0.5	0.2	0.723	-0.9
O=C(CSc1nnnn1-c1ccc(Cl)cc1)NC(=O)Nc1ccc2c(c1)OCCO2	8.9%	3.0	x	-0.9	5.3	0.691	x
CCOc1ccc(S(=O)(=O)NCCC(=O)N2CCC(Cc3ccccc3)CC2)cc1	-13.8%	2.2	i	-1.4	-1.5	0.692	-6.0

The list is partial; the hit share may differ from the screen's.
